# KCNQ2 block: KCNQ2 potassium channel inhibitors, primary screen, cell-based, CHO-K1, FluxOR thallium flux, B-score (AID 2156); O88943; 20 min; active compounds read low; only compounds with negative scores are shown here; some inactives read as strong as hits; B-score at 10 µM; 1.1% of 310,000 active;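 active = fluorescence ratio B-score at most minus 3 library SDs, with starting brightness B-score within 2 library SDs, cut at about -5.5 in these data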
# Target sequence (O88943 whole entry, looked up): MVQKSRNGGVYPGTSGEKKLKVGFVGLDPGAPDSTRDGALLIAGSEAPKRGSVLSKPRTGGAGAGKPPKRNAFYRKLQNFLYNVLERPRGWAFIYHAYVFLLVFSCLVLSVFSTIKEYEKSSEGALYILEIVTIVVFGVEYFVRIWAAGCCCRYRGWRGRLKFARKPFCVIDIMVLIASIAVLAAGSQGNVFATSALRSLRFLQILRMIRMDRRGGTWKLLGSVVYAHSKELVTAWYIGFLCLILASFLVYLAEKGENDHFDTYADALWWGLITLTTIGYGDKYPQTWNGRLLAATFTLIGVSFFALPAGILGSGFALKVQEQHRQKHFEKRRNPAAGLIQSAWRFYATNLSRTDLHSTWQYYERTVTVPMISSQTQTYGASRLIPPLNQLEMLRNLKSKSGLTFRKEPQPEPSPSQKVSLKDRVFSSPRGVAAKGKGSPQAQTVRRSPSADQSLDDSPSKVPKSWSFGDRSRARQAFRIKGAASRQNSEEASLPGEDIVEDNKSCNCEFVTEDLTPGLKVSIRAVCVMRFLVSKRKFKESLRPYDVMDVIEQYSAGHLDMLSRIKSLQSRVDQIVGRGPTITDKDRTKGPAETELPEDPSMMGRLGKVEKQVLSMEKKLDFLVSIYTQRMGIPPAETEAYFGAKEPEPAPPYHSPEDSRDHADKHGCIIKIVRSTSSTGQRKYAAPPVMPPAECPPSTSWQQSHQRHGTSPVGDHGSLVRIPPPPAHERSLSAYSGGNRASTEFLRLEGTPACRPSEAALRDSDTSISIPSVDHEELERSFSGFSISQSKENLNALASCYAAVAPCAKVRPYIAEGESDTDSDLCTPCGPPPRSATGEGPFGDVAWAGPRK
# KCNQ2 block baseline: further read-out of KCNQ2 block, marked with its call; B-score; measured here: initial fluorescence intensity artifact check;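 brightness before thallium and not channel activity; 0 = typical well and far values either way flag optical interference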
# * marks the source's active call; other numbers are inactive results; i = inactive. Only part of the results is shown, so the mix of outcomes need not match the whole.
mol | KCNQ2 block | KCNQ2 block baseline
COc1ccc(S(=O)(=O)Nc2nnc(C(C)C)s2)cc1 | i | 1.9
CC(C)CN1CCC(=O)N([C@H](COc2ccccc2)Cc2ccccc2)CC1 | i | -1.8
Cc1ccc2oc(-c3ccc(NC(=O)c4ccc5c(c4)OCO5)cc3)nc2c1 | i | -0.14
CCC(C)n1nnc2c(=O)oc3ccccc3c21 (stereo not drawn) | i | 0.52
CC1(C)CC(=O)c2sc(NC(=O)c3ccc4ncsc4c3)nc2C1 | i | -1.6
CCN(CC)S(=O)(=O)c1ccc(OCC(=O)NCc2ccccc2)cc1 | i | 0.03
O=C(NCN1CCN(c2ccccn2)CC1)c1cnccn1 | i | 0.79
CSC1=NCCN1C(=O)C(C)Oc1ccccc1 (stereo not drawn) | i | -0.75
CC1(C)CC2(CC(c3ccccc3F)c3cc(Cl)c(O)cc3O2)NC(=S)N1 (stereo not drawn) | i | -1.9
COc1ccc(OC)c(-n2nnnc2SCC(=O)Nc2ccc(C(=O)N3CCCCC3)cc2)c1 | i | 0.41
COc1ccc(COC(=O)c2ccc(S(=O)(=O)N3CCC(C)CC3)cc2)cc1 | i | -0.54
Cc1nc(N)sc1-c1nnc(SCC(=O)Nc2nccs2)n1C | i | -0.66
O=C1CSC(c2cn(-c3ccccc3)nc2-c2cccs2)N1CC1CCCO1 (stereo not drawn) | i | 0.34
O=C(COC(=O)CNC(=O)c1ccco1)Nc1ccccc1OC(F)F | i | -0.86
CCCNC(=S)N1CCC(Cc2ccccc2)CC1 | i | -0.99
COc1ccc(C)cc1NC(=O)C1CCN(S(=O)(=O)c2ccc3c(c2)NC(=O)CO3)CC1 | i | 0.01
Cc1ccc(C2SCC(=O)N2Cc2ccccc2)cc1 (stereo not drawn) | i | 0.2
CCCNC(=O)C/C(C)=N/NC(=O)COc1ccc(C)cc1Br | i | 0.88
CC(NC(=O)/C(C#N)=C/c1ccc([N+](=O)[O-])o1)c1ccccc1 (stereo not drawn) | i | 1.3
COc1ccc(NC2c3ccccc3C(=O)N2Cc2ccc3c(c2)OCO3)cc1 (stereo not drawn) | i | 0.05
ON=C1c2ccccc2-c2ccccc21 | i | 0.77
O=C(CN1C(=O)c2ccccc2C1=O)Oc1ccc(Cl)cc1 | i | -0.88
CCCn1c(=O)c(C(=O)N/N=C/c2ccccc2F)c(O)c2ccccc21 | i | -0.11
Cc1ccnc(NC(=O)CCC(=O)N(CC(=O)NCCc2ccccc2)c2ccc(F)cc2)c1 | i | 1.7
COc1ccc(-c2ccc(=O)n(CC(=O)NCc3ccco3)n2)cc1 | i | -0.05
Cc1ccc(Sc2ccncc2S(N)(=O)=O)cc1 | i | 0.24
COc1cc(C(C(=O)NCC2CCCO2)N(C(=O)Cn2nnc3ccccc32)c2ccc(C(C)=O)cc2)ccc1O (stereo not drawn) | i | 1
COc1ccc(S(=O)(=O)NCc2csc(C)n2)cc1 | i | -0.16
Cn1nnnc1NCc1c(F)cccc1Cl | i | -0.64
CCC(C)NC(=O)CSc1c2c(nc3ccccc13)CCCC2 (stereo not drawn) | i | -1.3

# Additional results follow:
mol | KCNQ2 block | KCNQ2 block baseline
COc1ccc(NC(=O)CC(CC(=O)O)c2cc(OC)c(OC)c(OC)c2)cc1 (stereo not drawn) | i | 0.13
Cc1ccccc1C(=O)N1CCC(C(=O)Nc2ccc3c(c2)OCO3)CC1 | i | -1.2
CC(=O)Nc1ccc(N2C(=O)c3ccc(C(=O)Nc4nnc(SCc5ccc(F)cc5)s4)cc3C2=O)cc1 | i | 0.07
CN1CCC(CNC(=O)Nc2ccccc2)(c2ccccc2)CC1 | i | 0.03
Nc1cccnc1Sc1cc(Cl)c(Cl)cc1Cl | i | -0.72
COc1ccc(O[C@H]2C=C[C@@H](c3ccccc3)O[C@@H]2CO/N=C/C[C@@H]2C=C[C@H](OC(C)=O)[C@@H](COC(C)=O)O2)cc1 | i | -0.11
CC1(C)C=Cc2cc(-c3coc4cc(O)cc(O)c4c3=O)cc(O)c2O1 | i | 0.7
COc1ccccc1-n1c(SC(C)C(=O)NCC2CCCO2)nc2cc(Cl)ccc2c1=O (stereo not drawn) | i | 2.6
COc1ccc(/C=C(/NC(=O)c2cccs2)C(=O)NC(C)(C)C)cc1OC | i | -0.19
COCCOC(=O)c1cc(C(=O)c2cc(Cl)ccc2O)coc1=N | i | 1.2
CCc1nnc(NC(=O)c2sc3nc4c(cc3c2N)CCCCCC4)s1 | i | 0.46
COc1ccc(OC)c(NC(=O)c2oc3c(c2C)C(O)CC(C)(C)C3)c1 (stereo not drawn) | i | 0.31
COCCCn1c(=O)/c(=C\c2ccccc2OC(F)F)s/c1=C(/C#N)C(=O)NC(C)C | i | 1.5
C=CSc1sc(Cl)c(N2CCOCC2)c1[N+](=O)[O-] | i | -0.95
CC(C)C(C(=O)NCC1CCCO1)N(Cc1ccccc1)C(=O)CNS(=O)(=O)c1ccccc1 (stereo not drawn) | i | 2.1
O=C(COC(=O)c1ccccc1Br)Nc1cc(S(=O)(=O)N2CCOCC2)ccc1N1CCCC1 | i | 0.54
Cc1cccc(C)c1Nc1nnc(SCC(=O)c2ccc(Br)s2)s1 | i | -0.68
CCC1(C)Cc2c(sc3nc(NN)n(C)c(=O)c23)CO1 (stereo not drawn) | i | 0.8
NC(=O)C1CCN(c2nc(C3CC3)nc3c2nnn3Cc2ccccc2Cl)CC1 | i | -0.12
CC(=O)N1c2ccc(S(=O)(=O)N3CCCC(C(=O)Nc4cc(C)cc(C)c4)C3)cc2CC1C (stereo not drawn) | i | -0.15
Cc1ccccc1OCc1nnc(SCc2cc(=O)[nH]c3ccccc23)n1-c1ccccc1 | i | 0.46
O=C(O)CCNC(=O)/C(=C\C=C\c1ccccc1)NC(=O)c1ccccc1 | i | 2.5
Cc1cccc(-n2nc3c(c2NC(=O)C(C)C)CSC3)c1 | i | 0.12
CCN1CC2=C(OC(N)=C(C#N)C2c2cccs2)/C(=C/c2cccs2)C1 (stereo not drawn) | i | 0.89
COCc1cc(CN2CCN(C)CC2)c(O)c2ncccc12 | i | -1.2
Cc1ccc(C2(c3noc(CN(C)CCO)n3)CCCC2)cc1 | i | -2.6
CC(C)(C)C(=O)NC(=S)Nc1sc2c(c1C#N)CCCCC2 | i | -1.8
COc1ccc(S(=O)(=O)NCC(c2ccc(F)cc2)N2CCN(C)CC2)cc1 (stereo not drawn) | i | 2.5
O=c1[nH]c2ccccc2nc1N1CCOCC1 | i | -1.4
Cc1ccc(-c2csc3ncnc(-n4cnc5ccccc54)c23)cc1 | i | 3

# Next part.
# Values run as follows: KCNQ2 block, KCNQ2 block baseline
O=C(CCCOc1ccccc1)NCc1ccco1
 : i, 0.04
Cc1cccc(C)c1OCC(=O)NNC(=O)CCNC(=O)c1ccc(Br)cc1
 : i, 0.05
CCN1CCN(S(=O)(=O)c2ccc(C(=O)Nc3sc4c(c3C(N)=O)CCN(CC)C4)cc2)CC1
 : i, -0.59
CS(=O)(=O)Nc1ccc(C(=O)Nc2ccccc2C(=O)N2CCCC2)cc1
 : i, 0.04
CCN(CC)CCN1C(=O)C(=O)/C(=C(/O)c2ccc(S(=O)(=O)N3CCOCC3)cc2)C1c1ccc(Cl)cc1 (stereo not drawn)
 : i, -0.36
O=C(NC(Cc1c[nH]c2ccccc12)C(=O)O)/C(=C/c1ccco1)NC(=O)c1ccccc1 (stereo not drawn)
 : i, 2
Cc1cc([N+](=O)[O-])ccc1NCc1cccc2ccccc12
 : i, -1.1
CCOc1ccc(/C(O)=C2/C(=O)C(=O)N(CC3CCCO3)C2c2ccco2)cc1 (stereo not drawn)
 : i, -0.77
Cc1cccc(N2CCN(CC(=O)Nc3ccc(S(=O)(=O)N4CCOCC4)cc3)CC2)c1C
 : i, 0.85
O=S(=O)(c1c(Cl)sc(Cl)c1Br)N1CCCC1
 : i, 1.4

# Additional structures.
# Values run as follows: KCNQ2 block, KCNQ2 block baseline
COc1ccc(C2CC(c3cccs3)=NN2S(=O)(=O)c2ccc(C)cc2)cc1 (stereo not drawn)
 : i, 0.61
Cc1cc(NC(=O)C(C)N2C(=O)c3ccccc3S2(=O)=O)no1 (stereo not drawn)
 : i, 0.08
CCc1ccc(OCC(=O)O/N=C(\N)Cc2ccc([N+](=O)[O-])cc2)cc1
 : i, 2.1
CCCCOc1ccc(-c2nnc(-c3ccncc3)o2)cc1
 : i, -0.25
CCCC(CCC)C(=O)Nc1ccc2c(c1)N(C(=O)CN1CCN(C)CC1)c1ccccc1CC2
 : i, 0.86
CS(=O)(=O)Nc1ccc(C(=O)NCCSc2ccc(Cl)cc2)cc1
 : i, -0.78
Cc1nn(C(=O)c2cccs2)c(C)c1CN1C(=O)c2ccccc2C1=O
 : i, 0.99
O=C(c1cc(-c2ccccn2)nc2c(Cl)cccc12)N1CCN(S(=O)(=O)c2ccccc2)CC1
 : i, -0.67
O=C1C2CCCCC2C(=O)N1c1cccc(OS(=O)(=O)c2ccccc2)c1 (stereo not drawn)
 : i, 0.25
CCNc1nc(SCC(=O)OC)nc(N2CCOCC2)n1
 : i, -0.4

# Gathered by group: the compounds so far with a tert-butyl group.
# Values run as follows: KCNQ2 block, KCNQ2 block baseline
COc1ccc(/C=C(/NC(=O)c2cccs2)C(=O)NC(C)(C)C)cc1OC
 : i, -0.19
CC(C)(C)C(=O)NC(=S)Nc1sc2c(c1C#N)CCCCC2
 : i, -1.8

# One compound at a time, as listed above. Order of values: KCNQ2 block, KCNQ2 block baseline
# Shown for COc1ccc(C2CC(c3cccs3)=NN2S(=O)(=O)c2ccc(C)cc2)cc1 (stereo not drawn) = i, 0.61
# Shown for O=C1C2CCCCC2C(=O)N1c1cccc(OS(=O)(=O)c2ccccc2)c1 (stereo not drawn) = i, 0.25
# Shown for CCCC(CCC)C(=O)Nc1ccc2c(c1)N(C(=O)CN1CCN(C)CC1)c1ccccc1CC2 = i, 0.86
# Shown for CCCCOc1ccc(-c2nnc(-c3ccncc3)o2)cc1 = i, -0.25

# Other compounds follow:
# Values run as follows: KCNQ2 block, KCNQ2 block baseline
COc1ccc(S(=O)(=O)N(CC(=O)NCC2CCCO2)c2ccccc2)cc1OC (stereo not drawn)
 : i, 0.92
Cc1cc2c(N=NC(=O)CCc3ccccc3)c(O)[nH]c2cc1Br
 : i, 2
CCOc1ccc(NC(=O)[C@@H](NC(=O)c2ccco2)C(C)C)cc1
 : i, 0.66
Cc1cc(C2C(C#N)=C(N)SC(N)=C2C#N)c(C)s1
 : i, -0.03
O=S(=O)(c1ccccc1Br)N1CCN(c2ncccn2)CC1
 : i, -1.1
CCN1C(=O)/C(=C\N2CCN(c3ccc(F)cc3)CC2)SC1=S
 : i, -1.1
Cc1oc2c(CN3CCCC(C)C3)c(O)ccc2c(=O)c1-c1ccccc1 (stereo not drawn)
 : i, 1.4
COC(=O)c1ccccc1NC(=O)COc1ccc2c(c1)OCO2
 : i, -0.71
Cc1cccc(CN2CCN(C(=O)c3ccccc3F)CC2)c1
 : i, -1.5
OCC1(CCc2ccccc2)CCN(Cc2cc(Cl)ccc2O)CC1
 : i, 0.38

# Three compounds from above, arranged by molar mass, falling:
# Values run as follows: KCNQ2 block, KCNQ2 block baseline
O=C(COC(=O)c1ccccc1Br)Nc1cc(S(=O)(=O)N2CCOCC2)ccc1N1CCCC1
 : i, 0.54
Cc1nn(C(=O)c2cccs2)c(C)c1CN1C(=O)c2ccccc2C1=O
 : i, 0.99
Cc1cc(C2C(C#N)=C(N)SC(N)=C2C#N)c(C)s1
 : i, -0.03

# Continued.
# Values run as follows: KCNQ2 block, KCNQ2 block baseline
Cn1c(N)c(C(=O)c2cc(-c3ccccc3)nc3ccccc23)c(=O)n(C)c1=O
 : i, -0.89
O=C(Nc1ccc(C(F)(F)F)cc1)C1(c2ccccc2)CC1
 : i, 1.2
CCN(CC)C(=O)c1c(C)[nH]c(=S)c(C#N)c1-c1ccco1
 : i, -0.61
Cc1cc(N2CCCCC2)n2nc(C)c(-c3ccccc3)c2n1
 : i, 0.38
Cc1nn(Cc2ccccc2)c(C)c1NC(=O)c1cc(-c2cccs2)on1
 : i, -0.13
COc1ccc(OC)c(NC(=O)C2CC(/C=C/c3ccccc3)=NO2)c1 (stereo not drawn)
 : i, -0.25
O=C(NCC(c1ccco1)N1CCc2ccccc2C1)c1ccc([N+](=O)[O-])cc1 (stereo not drawn)
 : i, -0.44
CC1CCN(CCCNC(=O)c2ccc(CSCc3cccc(Cl)c3)o2)CC1
 : i, 1.1
S=C(Nc1cccc(Br)c1)N1CCn2cccc2C1c1cccnc1 (stereo not drawn)
 : i, -1.6
Cc1ccc(Cn2cccc2C2=NC(C)CO2)cc1 (stereo not drawn)
 : i, 0.15

# Other results:
# Values run as follows: KCNQ2 block, KCNQ2 block baseline
Cn1c(=O)c2c(nc(NCCCO)n2Cc2cccc(C(F)(F)F)c2)n(C)c1=O
 : i, -0.84
CCC(C(=O)c1ccc2ncccc2c1)c1ccccc1 (stereo not drawn)
 : i, -0.73
COC(=O)c1nnn(CC(=O)Nc2cccc(Cl)c2C)c1C(=O)OC
 : i, 1.4
COc1ccc(C(OCC2CO2)c2ccc(OC)cc2)cc1 (stereo not drawn)
 : i, -0.77
Cc1nc2c3ccccc3n(CCN3CCCCC3)c2s1
 : i, -2.4
O=C(Nc1nnc(SCC(=O)N2CCCCC2)s1)c1cccs1
 : i, -2
CCc1nnc(SCC(=O)Nc2ccccc2)nc1CC
 : i, -0.62
Nc1nc(CN2CCN(Cc3ccccc3)CC2)nc(Nc2ccccc2)n1
 : i, -0.07
O=C(NCCc1ccncc1)Nc1ccccc1
 : i, 0.03
O=C(Nc1nc(-c2cccs2)c(C(=O)C(F)(F)F)s1)c1ccccc1
 : i, 0.12

# (next part)
# Values run as follows: KCNQ2 block, KCNQ2 block baseline
C=CCSC1=NN2CCS(=O)(=O)N=C2S1
 : i, -0.84
Cc1oc(-c2ccccc2F)nc1CS(=O)(=O)CC(=O)NCCCN1CCN(C)CC1
 : i, -0.32
CC(=O)Oc1c2occc2cc2ccc(=O)oc12
 : i, -1.3
CC(C)[C@H](NC(=O)N1c2ccccc2NC(=O)[C@@H]1C(C)C)C(=O)N[C@H](C(=O)O)c1ccccc1
 : i, -1.4
C=CCO/N=C(/C)c1c(O)c(CC)c(-c2ccccc2)n(-c2ccccc2)c1=O
 : i, 0.8
CCC(C(=O)NC1CCCC1)N(C(=O)c1snc(C(N)=O)c1N)c1ccc(C)cc1C (stereo not drawn)
 : i, 0.85
